# Source: PubChem BioAssay
# ugtP null kill = compounds lethal to S. aureus RN4220 ugtP deletion mutant; OD600 growth, 16 h; some inactives read as strong as hits; growth inhibition, % (test concentration not listed); 0.54% of 330,000 active;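 active = z-score under -3 and OD600 up to 0.15 on both plates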;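 also: plate controls were untreated wells for no effect and antibiotic for full effect; wells of about 80 µL received 100 nL stock; the first replicate is given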
# Sa RN4220 lethal = kills Staphylococcus aureus RN4220; S. aureus RN4220 growth, OD600, 16 h; inhibition, % (concentration not given with the values); 0.33% of 330,000 active; AID 1259311;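 active = z-score of -3 or lower and OD600 up to 0.18 on both plates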;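 also: plate controls were untreated cells for no effect and reference antibiotic for full effect; stock transfer was 100 nL into about 80 µL; one replicate is shown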
# PrP UTR inh = suppresses PrP 5' UTR mRNA reporter expression | cell-based PrP 5' UTR mRNA reporter, plate reader | inhibition, % (no concentration beside the values) | 0.35% of 340,000 active;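 active = every replicate at 50% or more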;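 also: 0 = median of the neutral control wells; tested in H4 reporter cells; numbers are from one replicate; inactives centre near -14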
# Mtb hypoxia inh = inhibitors of hypoxia-regulated fluorescent reporter in Mycobacterium tuberculosis. AID 1159583. 0.1% of 300,000 active. M. tuberculosis hypoxia-regulated fluorescent reporter, fluorescence. fluorescence inhibition, % (concentration not given with the values);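 active = 35 to 45% if threefold the growth effect, above 45% if 1.5-fold the growth effect; inactive = the rest, general growth blockers included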;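 also: wells of about 50 µL received 100 nL stock; 0% = vehicle wells and 100% = reference inhibitor wells; whole bacteria with a GFP reporter of the hypoxia response; strong numbers were not always called active; many hits fall short of the cut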
# Bead autofluor = counter-screen for toxin protease inhibitors: compound fluorescence; compound autofluorescence counterscreen, microsphere flow cytometry; active compounds read high; fluorescence intensity (concentration not given with the values); 3.1% of 360,000 active; AID 624483;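 active = at least 3 SD above the mean of all compounds, about 16000 in these data; inconclusive = too few beads counted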;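 also: 100 nL of 1 mM stock went into each well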
# BJeLR lethal = BJeLR cell viability loss; BJeLR (HRASV12) viability, CellTiter-Glo ATP luminescence, 48 h; reference of the scale not given here; inhibition, % (test concentration not listed); 0.17% of 300,000 active; AID 1554;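 active = replicate mean above 50%; inconclusive = above 50% but judged a plate artefact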;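 also: 50 nL library stock added to about 25 µL; numbers are from one replicate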
# Mtb hypoxia inh growth = further read-out of Mtb hypoxia inh, marked with its call; growth inhibition, %; measured here: M. tuberculosis growth (absorbance);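 0% = vehicle and 100% = reference antibiotic; read after six days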
# An asterisk follows results filed as active; ? = inconclusive; . = not tested or not shown.
# Values run as follows: ugtP null kill | Sa RN4220 lethal | PrP UTR inh | Mtb hypoxia inh | Mtb hypoxia inh growth | Bead autofluor | BJeLR lethal
O=C(NCCN1CCNC1=O)C1CCC(=O)N(CCc2ccc(Cl)cc2)C1 (configuration not stated)
  -2 | -4.3 | -8 | -6 | 8 | 5832 | 4
COC(=O)Cc1cnc(NC(=O)C2C3CCC(C3)C2C(=O)O)s1 (configuration not stated)
  2 | 1.7 | -9 | 7 | 8 | 4929 | -3
CCOc1ccc(C=NNC(=O)Nc2ccccc2)cc1
  6 | 6.2 | . | 4 | 21 | . | .
CCOC(=O)C1(Cc2ccccc2)NC(c2ccccc2F)C2C(=O)N(CC)C(=O)C21 (configuration not stated)
  -7 | 5.3 | 0 | 6 | 1 | 9425 | 18
O=C(c1cccc(F)c1)N1CCN(c2ccc([N+](=O)[O-])c(N3CCCCC3)c2)CC1
  -2 | 4.9 | -10 | 3 | 10 | 2922 | 3
C/C(=N/NC(=O)C1CCCC1)c1ccc(NC(=O)C(F)(F)F)cc1
  . | . | -5 | . | . | 4351 | -2
O=C(c1ccc2nsnc2c1)N1CCN(c2ccc([N+](=O)[O-])cc2)CC1
  16 | 5.5 | -23 | 9 | -12 | 5403 | -21
COc1ccc(-n2c(=O)cc(N3CCN(c4ccccc4)CC3)[nH]c2=O)cc1
  -2 | 8.7 | . | 0 | 2 | 11010 | -15
CC(C)N1CCN(Cc2ccc(OC3CCCC3)cc2)CC1CCO (configuration not stated)
  16 | 5.2 | -56 | 17 | 0 | 3287 | -2
CC(=O)Nc1nc(CC(C)C)cc(-c2ccco2)c1C#N
  -1 | 2.6 | -16 | 0 | 1 | 11505 | 13

# Taken from above:
# Mtb hypoxia inh growth with O=C(NCCN1CCNC1=O)C1CCC(=O)N(CCc2ccc(Cl)cc2)C1 (configuration not stated) stands at 8
# BJeLR lethal with C/C(=N/NC(=O)C1CCCC1)c1ccc(NC(=O)C(F)(F)F)cc1 stands at -2

# Compounds above containing sulfur (two):
# Values run as follows: ugtP null kill | Sa RN4220 lethal | PrP UTR inh | Mtb hypoxia inh | Mtb hypoxia inh growth | Bead autofluor | BJeLR lethal
COC(=O)Cc1cnc(NC(=O)C2C3CCC(C3)C2C(=O)O)s1 (configuration not stated)
  2 | 1.7 | -9 | 7 | 8 | 4929 | -3
O=C(c1ccc2nsnc2c1)N1CCN(c2ccc([N+](=O)[O-])cc2)CC1
  16 | 5.5 | -23 | 9 | -12 | 5403 | -21

# Next part:
# Values run as follows: ugtP null kill | Sa RN4220 lethal | PrP UTR inh | Mtb hypoxia inh | Mtb hypoxia inh growth | Bead autofluor | BJeLR lethal
O=C(NNc1ccccc1C(F)(F)F)c1cccs1
  -1 | 2.4 | -41 | -2 | 0 | 3781 | 5
O=C(O)c1ccc(/C=C/c2ccc3cccc(O)c3n2)cc1
  -3 | 6.7 | -70 | 13 | 8 | 4851 | 9
O=C(C1CCCN(Cc2nc(-c3cccs3)no2)C1)N1CCOCC1 (configuration not stated)
  3 | 3.3 | -13 | 8 | -6 | 4736 | 4
Fc1cccc2sc(Nc3nnc(-c4ccccc4)o3)nc12
  7 | 11 | -96 | -6 | -6 | 4068 | -4
O=C(O)c1cc2ccc3ccccc3c2[nH]1
  -11 | 5.3 | -2 | 5 | 9 | 8284 | 3
CCC(C)c1ccccc1OCCOCCN1CCCC1 (configuration not stated)
  5 | 5.4 | -7 | 10 | 5 | 8231 | -5
COc1ccccc1N1CCNCC1
  -3 | 4.8 | -46 | 5 | 0 | 5391 | -10
CC(C)OCCCn1c(SC(C)C(=O)NCC2CCCO2)nc2cc(Cl)ccc2c1=O (configuration not stated)
  5 | 3.5 | 3 | 4 | 3 | ? | -3
Nc1nc(NCCCN2CCOCC2)nc(Nc2ccccc2)c1[N+](=O)[O-]
  -1 | 2.4 | 0 | 5 | 11 | 7921 | -13
Cc1ccc(F)cc1NC(=O)CN1C(=O)NC(C)(c2ccc3c(c2)OCCO3)C1=O (configuration not stated)
  3 | 3.8 | -11 | 4 | 2 | 3455 | .
O=[N+]([O-])c1cccc(CN2CCC(Cc3ccccc3)CC2)c1
  9 | -1.6 | -13 | 4 | 15 | 3956 | 10
c1ccc(-c2nnc(N3CCCC3)nc2-c2ccccc2)cc1
  21 | 5.1 | 10 | 12 | 6 | 2947 | -8
O=C(Nc1ccc(F)cc1)Nc1cccnc1
  -2 | 2.0 | 9 | 8 | 5 | 3050 | 5
O=C(CCCOc1ccccc1)Nc1nc2ccccc2[nH]1
  9 | 4.9 | -73 | -6 | 8 | 4088 | 6
CC(=O)c1ccc(N2CCN(C(=O)C3CCCN(S(=O)(=O)c4c(C)[nH]c(=O)[nH]c4=O)C3)CC2)cc1 (configuration not stated)
  -1 | 1.3 | -25 | 12 | 1 | 4271 | -2
CC1CCN(CCCNS(=O)(=O)c2cc(Br)cc3c2N(C(=O)C2CC2)CC3)CC1
  6 | 0.8 | -15 | -8 | 8 | 3540 | -2
Cc1nn(Cc2ccc(C(=O)Nc3nc4c(C)cccc4s3)o2)c(C)c1Br
  -16 | -9.0 | -29 | 11 | 3 | 3346 | 2
Cc1c(F)cccc1NS(=O)(=O)c1ccc(OCCNS(C)(=O)=O)cc1
  -5 | 25 | -13 | 6 | 5 | 3585 | 11
COc1cc(C(=O)NCCC2=CCCCC2)ccc1OC1CCN(C(C)=O)CC1
  13 | 5.0 | -12 | -7 | -6 | ? | -3
Cc1cc(=O)c(C(=O)O)nn1-c1ccc(Cl)cc1
  18 | 4.9 | -16 | 6 | 18 | 4764 | 7

# Gathered by group, the entries above with an aryl methoxy group (3)
# Values run as follows: ugtP null kill | Sa RN4220 lethal | PrP UTR inh | Mtb hypoxia inh | Mtb hypoxia inh growth | Bead autofluor | BJeLR lethal
COc1ccc(-n2c(=O)cc(N3CCN(c4ccccc4)CC3)[nH]c2=O)cc1
  -2 | 8.7 | . | 0 | 2 | 11010 | -15
COc1ccccc1N1CCNCC1
  -3 | 4.8 | -46 | 5 | 0 | 5391 | -10
COc1cc(C(=O)NCCC2=CCCCC2)ccc1OC1CCN(C(C)=O)CC1
  13 | 5.0 | -12 | -7 | -6 | ? | -3

# Continued.
# Values run as follows: ugtP null kill | Sa RN4220 lethal | PrP UTR inh | Mtb hypoxia inh | Mtb hypoxia inh growth | Bead autofluor | BJeLR lethal
O=C(CC1Oc2ccccc2NC1=O)NCc1ccc(Cl)cc1 (configuration not stated)
  9 | 0.4 | -17 | . | . | 3994 | -9
COC(=O)Cn1cc(C(=O)OC)c2ccccc21
  12 | -1.3 | -47 | . | . | 3564 | 8
CCOC(=O)c1cc(S(=O)(=O)N2CC(C)CC(C)C2)cn1C (configuration not stated)
  -4 | 3.7 | -6 | 11 | 6 | 5897 | 8
O=S(=O)(NCc1cc(-c2ccc(Cl)cc2)no1)c1ccccc1
  8 | -1.5 | -21 | 4 | -7 | 9402 | 4
O=C(N/N=C/c1cn(-c2ccccc2)nc1-c1cc2ccccc2o1)c1c[nH]c2ccccc12
  . | . | -61 | . | . | 3985 | -5
O=C(NCc1ccc(F)cc1)C1CCN(C(=O)Nc2ccc(F)cc2)CC1
  -3 | -3.8 | 2 | 0 | 2 | 4206 | 1
O=C(COc1ccc2ccccc2c1Br)NC(=S)Nc1cccc(CO)c1
  -19 | 1.9 | -37 | 7 | 2 | 2505 | -3
Cc1cccc(N2N=C(C(=O)O)CCC2=O)c1
  1 | 4.9 | 8 | -7 | -6 | 3191 | -3
COc1ccc(C)cc1NC(=O)COC(=O)c1ccc2ccccc2n1
  -5 | 1.7 | -16 | -1 | 1 | 10189 | .
Cc1ccc2c(CN(C)Cc3cccc(F)c3)cc(=O)oc2c1C
  10 | 2.4 | -25 | 1 | 1 | 4245 | 2

# Additional compounds follow:
molecule	ugtP null kill	Sa RN4220 lethal	PrP UTR inh	Mtb hypoxia inh	Mtb hypoxia inh growth	Bead autofluor	BJeLR lethal
CSCC[C@H](NC(=O)CCCn1nnc2ccccc2c1=O)C(=O)O	1	3.0	-29	13	0	4736	-1
CCSc1nnc(NC(=O)C2Cc3ccccc3CN2S(=O)(=O)CC)s1 (configuration not stated)	-5	6.0	-21	-2	5	2479	-2
NC(=O)CCn1c(C(=O)c2ccc(Cl)cc2)c2ccccc2[n+]1[O-]	-11	4.7	-18	8	2	4066	-13
Cc1nn(CC(=O)NCc2ccc(-n3cccn3)cc2)c(C)c1[N+](=O)[O-]	-4	2.5	-16	-12	13	2270	-2
COc1ccccc1N1CCC(N2CCN(CC(C)(C)C)C(CCO)C2)CC1 (configuration not stated)	2	1.1	-21	-4	8	3412	-1
COc1ccc(-c2nnn(CC(=O)N(CC(=O)NCCC(C)C)Cc3cccs3)n2)cc1OC	5	-2.6	-4	3	5	16733*	-8
CCN(CC)S(=O)(=O)c1ccc(OC(C)C)c(NC(=O)c2c3c(nc4ccccc24)CCN(Cc2ccccc2)C3)c1	-8	5.7	-10	4	-1	7946	-1
CC1(C)C(=O)Nc2ccccc2N1C(=O)COC(=O)c1ccc(Cl)c(S(=O)(=O)NCc2ccccc2)c1	-6	2.8	-17	.	.	4604	7
CCOC(=O)C1=C(N)OC2=C(C(=O)CCC2)C12C(=O)N(CC(N)=O)c1ccccc12 (configuration not stated)	-1	7.4	-5	0	-4	2497	-1
C#CCn1c(=NC(=O)c2cccs2)sc2cccc(OC)c21	0	-20	-35	12	18	6075	-3
COC(=O)C1C2C=CC3(CN(CC4CCCO4)C(=O)C13)O2 (configuration not stated)	3	3.2	-4	.	.	4825	3
COc1ccc(N2CCN(C(=O)c3cccc(F)c3)CC2)c([N+](=O)[O-])c1	5	4.4	-12	14	8	4317	-4
O=C1OCCC1Sc1nc2ccccc2[nH]1 (configuration not stated)	1	1.3	3	5	1	8460	2
Cc1cc(C)n(CC(O)CN(c2cccc([N+](=O)[O-])c2)S(=O)(=O)c2ccccc2)n1 (configuration not stated)	-8	2.0	20	-9	-8	4467	-7
Cc1ccc(Cl)cc1NC(=S)N(Cc1cccs1)C1CCCC1	14	2.0	-18	1	3	4073	-6
Cc1c(NC(=O)C(C)OC(=O)CC2Sc3ccccc3NC2=O)c(=O)n(-c2ccccc2)n1C (configuration not stated)	3	3.5	-24	17	11	6066	4
O=C(Cc1ccc(Cl)cc1)NCCc1ccc(F)cc1	1	0.1	.	4	7	5620	-6
S=c1[nH]nc(-c2cc(-c3ccccc3)n[nH]2)n1N=Cc1c(Cl)cccc1Cl	0	8.3	.	7	-2	.	.
CCO[C@@H]1OC(C(=O)NC2CC2)=C[C@H](c2ccc3c(c2)OCO3)[C@H]1CCCO	.	.	-65	.	.	3951	-8
O=C(O)c1[nH]c2ccccc2c1C=NCc1ccccc1Cl	9	5.1	50	15	1	6734	3
O=C(O)C1CCN(S(=O)(=O)c2cccnc2)CC1	1	2.2	-5	.	.	2295	14
O=S(=O)(Nc1cccnc1)c1ccc(Cl)cc1	3	6.7	12	-4	-11	3178	-4
CC1(Br)C2CCCC1C2S(=O)(=O)c1ccccc1 (configuration not stated)	8	3.2	-22	9	-1	2467	-4
COc1cccc(-c2cc(C(=O)Nn3cnnc3)c3ccccc3n2)c1	-2	0.7	-16	8	4	9871	0
Cn1c2ccccc2c2c(C(=O)NCc3ccco3)cn(C3CCCCC3)c(=O)c21	10	3.0	4	.	.	4824	-10
CC1CCC2(CC1)NC(=O)N(CC(=O)Nc1ccc(F)cc1)C2=O (configuration not stated)	5	3.6	18	-4	-2	2701	.
CC1(C)SC(=S)N(/N=C/c2cccnc2)C1N(O)C(=O)NC1CCCCC1 (configuration not stated)	.	.	-23	.	.	5216	-8
COc1ccc(CNC(=O)CCS(=O)(=O)c2cc3c(cc2Cl)NC(=O)CO3)cc1	-1	0.4	-16	-1	0	4484	17
Cc1occc1C(=O)NNC(=O)NC12CC3CC(CC(C3)C1)C2	4	1.6	-12	.	.	3306	5
Cc1nc(C)c(C(=O)NNC(=O)c2ccc(Br)cc2)s1	9	4.5	-26	0	0	2419	1
CCC1ON(c2ccccc2)C2c3nc4ccccc4n3CC12 (configuration not stated)	0	9.3	2	-9	1	2840	-3
Nc1ccc(NS(=O)(=O)c2ccccc2)cc1	-5	-3.7	-20	3	15	2710	-5
CCOc1ccc(C(=O)OCC(=O)NCC2CCCO2)cc1 (configuration not stated)	6	4.2	-7	9	9	3316	.
CCc1nc(SCC(=O)Nc2ccccc2C)n[nH]1	5	1.6	-14	8	3	5141	6
N#Cc1ccc(S(=O)(=O)N2CCN(Cc3cccs3)CC2)cc1	3	2.9	-21	-4	-2	3639	.

# No enrichment for hits. About 4.1% of those tested had a hit in this group.
